Bioassay records deposited in PubChem by Broad Institute.
Tg IFNy HTS = T. gondii growth inhibition with IFN-gamma, primary screen, cell-based | hit rate 3.8% among 69,000 | activity change, negative = inhibition, %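 (about 20 µM by stock and volumes)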 | Toxoplasma gondii growth in IFN-gamma-treated host cells; active compounds read low; reference of the scale not given here;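 active means below -70%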;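 further: host cells are HeLa cells infected with Toxoplasma gondii; parasite growth read as luciferase light; one replicate is shown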
The depositor's hits bear a star; i = inactive; & = joins results of further samples.

canonical_smiles	Tg IFNy HTS
Cc1ccc(CN2CCCC3(CC(n4ccnc4)CO3)C2)o1 (stereo not given)	1.9
COCCNC(=O)C[C@@H]1CC[C@@H]2[C@H](COC[C@H](O)CN2Cc2ccc(Cl)c(Cl)c2)O1	-2.5
CCN(CC)c1ncnc2c1cnn2CC(=O)NCC1CCCO1 (stereo not given)	359.9
O=C(O)C1c2ccccc2C(=O)N(Cc2ccc(F)cc2)C1c1cccs1 (stereo not given)	141.7
Cc1cccc(-c2nc(C)c(CCNC(=O)C(=O)Nc3c(C)cc(C)cc3C)s2)c1	-78.7*
Cc1cccc(Nc2nc(C(=O)NCCc3cccs3)nc3ccccc23)c1	-57.3
CNc1cc(CNC(=O)C2(c3cccc(F)c3)CCOCC2)nc(-c2ccncc2)n1	-1.3
Cc1ccc2[nH]c(C(=O)NCc3cccnc3)c(NC(=O)c3ccc(F)cc3)c2c1	-4.3
CN(Cc1cc(C2CC2)n[nH]1)C(=O)c1cc(Cn2cnc3ccccc32)on1	-1.1
Cc1nsc(NC(=O)N2CC[C@@]3(O)CCCC[C@H]3C2)n1	-6.7
CCCNC(=O)c1ccc2onc(-c3csc(-c4cccnc4)n3)c2c1	-19.4
CCOC(=O)Cc1csc(N2C(=O)c3ccccc3C2=O)n1	-20.7
Cc1ccc(N2CCC3(CC2)CN(C(=O)c2cccnc2)CCO3)nn1	4.4
CCN1CCN(C(=O)C(CC(C)C)NS(=O)(=O)c2ccc3[nH]c(=O)ccc3c2)CC1 (stereo not given)	48.1
CCCc1cc(CNC(=O)C2C=CCN2S(C)(=O)=O)on1 (stereo not given)	114.6
O=C(Nc1ccc(F)c([N+](=O)[O-])c1)c1ccc2c(c1)OCCO2	134.7
O=C(NCCc1ccncc1)[C@@H]1[C@@H](CO)[C@@H]2Cn3c(ccc(-c4ccccc4)c3=O)[C@@H]2N1C(=O)C1CC1	-1.9
COc1cc(N2CC[C@H]3[C@@H]2CCN3C(=O)c2cccnc2)ncn1	22.5
COc1ccc2c3c([nH]c2c1)[C@@H](CO)N(C(=O)NC(C)C)CC31CN(Cc2ccc(F)cc2)C1	-5.4
Cc1nc(-c2cccc(F)c2)sc1CCNC(=O)CN1C(=O)c2ccccc2C1=O	15.3
Cc1cc(S(=O)(=O)NC2CCCCNC2=O)c(C(F)(F)F)o1 (stereo not given)	-45.0
Cc1cccc(Cn2c3c(ccc2=O)CCN(C)CC3)n1	-1.9
CN1CC[C@@]2(C(=O)Nc3ccccc3)CCN(S(=O)(=O)c3ccccc3)CC[C@H]12	43.6
O=C(C[C@@H]1CC[C@@H]2[C@H](COC[C@@H](O)CN2C(=O)c2ccccc2F)O1)NCc1ccc(Cl)c(Cl)c1	-21.1
CN1CC2(CCCCN2C(=O)c2ccn(C)n2)CC1=O (stereo not given)	-2.5
COc1ccc(-c2ccc(OC)cc2C(=O)O)cc1	-8.6
COCC1CN(C(=O)C2CC2)Cc2cnn(C)c21 (stereo not given)	86.9
O=C(Nc1ccc(F)cc1)N1CC(=O)N2[C@H](CO)[C@H](c3ccc(-c4cccc(F)c4)cc3)[C@@H]2C1	6.2
O=C(Cn1ncc2c(N3CCOCC3)ncnc21)N1CCN(c2ccccc2)CC1	27.2
CCCC(=O)Nc1ccc2c(c1)CCC(=O)N2CC(C)C	-21.6

4 of the compounds above, field by field:
Molecule: O=C(NCCc1ccncc1)[C@@H]1[C@@H](CO)[C@@H]2Cn3c(ccc(-c4ccccc4)c3=O)[C@@H]2N1C(=O)C1CC1
- Tg IFNy HTS: -1.9
Molecule: COc1cc(N2CC[C@H]3[C@@H]2CCN3C(=O)c2cccnc2)ncn1
- Tg IFNy HTS: 22.5
Molecule: COc1ccc2c3c([nH]c2c1)[C@@H](CO)N(C(=O)NC(C)C)CC31CN(Cc2ccc(F)cc2)C1
- Tg IFNy HTS: -5.4
Molecule: Cc1nc(-c2cccc(F)c2)sc1CCNC(=O)CN1C(=O)c2ccccc2C1=O
- Tg IFNy HTS: 15.3

Continued:
canonical_smiles	Tg IFNy HTS
COc1ccccc1CNC(=O)Cn1c(=O)cc(-c2nc(C3CC3)no2)c2ccccc21	-36.0
CCc1cnc(N2CC[C@H]3CN(CC)S(=O)(=O)[C@@H]3CC2)nc1	10.1
Cc1nc2c(Cl)cc(Cl)cc2c2nc(N)nn12	-92.3*
C[C@H](CO)N1C[C@H](C)[C@H](CN(C)S(=O)(=O)c2ccccc2C#N)OCc2cnnn2CCCC1=O	-7.1
Cc1[nH]c2ccc(CNC(=O)c3ccccc3-c3ncc[nH]3)cc2c1C	1.0
CN1CCN(C(=O)C[C@@H]2CC[C@@H]3[C@H](COC[C@H](O)CN3Cc3cccc(-c4ccncc4)c3)O2)CC1	6.8
O=C(O)C(Cc1ccccc1)n1cnnn1 (stereo not given)	-18.5
O=C(C[C@H]1C=C[C@@H](NS(=O)(=O)c2ccc(F)cc2)[C@H](CO)O1)N1CCc2ccccc2C1	57.3
CC(C)=CCC[C@](C)(O)[C@H]1CC[C@]2(C)[C@@H]1[C@H](O)C[C@@H]1[C@@]3(C)CC[C@H](O)C(C)(C)[C@@H]3CC[C@]12C	28.2
O=C(COc1ccc(F)cc1)N1CCC(c2ccccc2)C1 (stereo not given)	31.5
CSc1ccc(CC2(CCC(=O)N3CCN(c4ncc5ccccc5n4)CC3)CCC(=O)N2)cc1 (stereo not given)	8.5
CC(C)c1cc(-c2ccc(F)c3ccccc23)nc(N)n1	-5.2
COCCN1CCC(c2nc3ccc(NC4CCC4)cn3n2)CC1	-2.3
CCN(CCCN1CCOCC1)C(=O)c1ccccc1C1CCNC1 (stereo not given)	-5.4
O=C(O)C1C2C=CC(C2)C1C(=O)NCCc1ccncc1 (stereo not given)	18.5
Cc1ccc(-c2coc(-c3ccc(NC(=O)C(C)C)cc3)n2)c(C)c1	-17.0
N#C[C@H]1[C@@H](c2ccccc2C2=CCCCC2)[C@@H](CO)N1C(=O)c1ccccn1	8.8
Cc1nc(-c2ccc(F)cc2)sc1CCNC(=O)c1ccccc1	-25.7
CN1CCOc2cc(S(=O)(=O)N3CC[C@H]4CC[C@@H](C3)N4)ccc21	11.2
O=C(NC1CC1)c1cc2n(n1)CCN(C(=O)Cc1[nH]nc3ccccc13)C2	2.3
CC(C)OCc1ncn2c1CN(Cc1cnn(C)c1)CCC2	72.0
CN1C[C@H]2[C@@H](c3ccccc31)[C@H](CO)N2Cc1ccccc1Cl	13.8
Cc1nc(CN2CCN(C(=O)c3cccc(-n4cccn4)c3)CC2)cs1	4.6
CN1C[C@@H]2C3(CCN(C(=O)c4ccco4)CC3)CC[C@]2(C(=O)N2CCCC2)C1	5.6
CN1C(=O)c2cc(NC(=O)NCc3ccccc3)ccc2OC[C@@H]2O[C@H](CC(=O)NCC3CCCCC3)CC[C@@H]21	-87.0*
CN(C)C(=O)COCc1nnc2n1CCN(Cc1ccsc1)C2	-2.3
Fc1cccnc1OC1COC2(CCN(Cc3ccsc3)CC2)C1 (stereo not given)	-47.8
Cc1nc(C(C)C)ncc1C(=O)N1CC(c2ccncc2)C1	2.5
COc1cc(NC(=O)Cn2ncc3c(N4CCOCC4)ncnc32)cc(OC)c1	90.7
Cc1nn(CCO)c(C)c1CN1C[C@@H]2[C@H](C1)[C@H]1CC[C@@H]2O1	-0.7

Continued.
canonical_smiles	Tg IFNy HTS
O=C(c1ccno1)N1CC[C@H]2CN(Cc3cccc(Cl)c3)S(=O)(=O)[C@@H]2CC1	5.1
C[C@H]1CN([C@@H](C)CO)C(=O)c2c(c3ccccc3n2C)-c2ccccc2CO[C@H]1CN(C)C(=O)[C@H](Cc1ccccc1)N(C)C	-48.3
O=C(c1ccco1)N1CCOCC1c1csc(-c2ccccc2)n1 (stereo not given)	-0.8
c1ccc(Cn2nnc3cnccc32)cc1	-7.0
COc1nccnc1NS(=O)(=O)c1ccc(N)cc1	2.9
CCc1ccc(CCC(=O)N2CCOC(C(F)(F)F)C2)cc1 (stereo not given)	-4.6
COc1cc(F)c(C(C)C)cc1-c1ccc(C(F)(F)F)cc1CN1C(=O)O[C@H](c2cc(C(F)(F)F)cc(C(F)(F)F)c2)[C@H]1C	-44.9
CCc1nc([C@H]2CN(C)C[C@@H]2C(=O)NCc2cnc(C)cn2)c(C)[nH]1	1.9
C=CCN1CCN(C(=O)c2cccc(C)n2)Cc2cccnc21	-0.7
CN(C)CCN1C(=O)CCC2C1CCN2C(=O)Cc1cccc(F)c1 (stereo not given)	9.8
COC(=O)C1[C@H]2C(=O)N(Cc3cccs3)C[C@]23C=C[C@H]1O3 (stereo not given in full)	1.5
COc1cccc(NC(=O)C2C3C=CC(O3)C2C(=O)NCc2cccnc2)c1 (stereo not given)	-4.9
CN(C)c1ncc(-c2ccco2)c(-c2ccco2)n1	0.9
CCC1CN(Cc2ccc(S(=O)(=O)NC)cc2)CCN1C(C)C (stereo not given)	-3.4
Cc1oc(-c2ccccc2Cl)cc1C(=O)N1CCCCC1CO (stereo not given)	-44.9
O=C(CC1SC2=NCCN2C1=O)NCc1cccc(N2CCCCC2)c1 (stereo not given)	-3.6
c1ccc2nc(C3=NCCN3)ccc2c1	4.9&9.4
COc1ccc(CC(=O)NCc2cc(C)oc2C(F)(F)F)cc1OC	-6.8
C[C@@H]1CN([C@H](C)CO)C(=O)c2cccc(NC(=O)NC3CCCCC3)c2O[C@H]1CN(C)Cc1ccc(C(F)(F)F)cc1	-74.3*
CN(C)CC(=O)N1[C@@H](C#N)[C@H](c2ccccc2-c2ccc(C(=O)N(C)C)cc2)[C@@H]1CO	4.1
CN(C)CC(=O)N[C@H]1C=C[C@@H](CC(=O)NCc2ccc(Cl)cc2)O[C@H]1CO	-25.4
NCC[C@H]1CC[C@@H](NS(=O)(=O)c2ccc(Cl)cc2)[C@@H](CO)O1	-40.7&-21.1
N#Cc1c(N)nc(Sc2ccc(Cl)cc2)c(C#N)c1-c1ccccc1	-92.0*
O=C(NCc1cccnc1Oc1ccc(F)c(F)c1)[C@H](O)c1ccccc1	-0.3
CCN1CCC2(CN(C(=O)N(C)C)CC23CCN(Cc2cnn(C)c2)CC3)C1=O (stereo not given)	-0.7
Cc1ccc(NC(=O)N2CCC[C@]3(C(=O)N(C)C)CN(Cc4cnn(C)c4)C[C@H]3C2)cc1	60.6
COc1ccc(NC(=O)c2c(O)c3cccnc3n(-c3ccc(F)cc3)c2=O)cc1	31.5
Fc1cccnc1CN1CCN(C(c2ccccc2)c2ccccc2)CC1	-5.3
CC(C)Oc1ccc(C(=O)Nc2ccccc2C(=O)NCc2ccccn2)cc1	54.7
COc1ccc(-c2cc(N)n(-c3ccccc3)n2)cc1	i

More results follow.
canonical_smiles	Tg IFNy HTS
CCS(=O)(=O)N1CCC2(CC1)OC(=O)C(C)=C2C(=O)Nc1ccc(F)cc1	45.3
CCCNC(=O)N1C[C@@H]2N[C@H](C1)C2c1ccc(-c2cccc(F)c2)cc1 (stereo not given in full)	-52.0&-30.1
OC(CNc1ccccc1)Cn1c2ccc(Cl)cc2c2cc(Cl)ccc21 (stereo not given)	i
Cc1ccc(C(C)CCN2CCN(c3ccccc3C(O)c3nccn3C)CC2)o1 (stereo not given)	20.5
Cc1cnc2n1CCN(C)C21CCN(Cc2ccco2)CC1	2.2
COCCC(=O)NC(Cc1cccs1)c1nccs1 (stereo not given)	1.6
Cc1c(C)c(C)c(C#CCO)c(C)c1C	44.9
O=C1CCc2cc(S(=O)(=O)Nc3cccc(Cl)c3)cc3c2N1CC3	-27.2
FC(F)(F)c1cccc2c(N3CCN(C4CCOCC4)CC3)ccnc12	-46.1
CCCc1cc2c(cc1NC(=O)c1cc(CC(C)C)[nH]c(=O)n1)OCO2	-31.7
CC(=O)Nc1ccc(NS(=O)(=O)c2ccc3oc(=O)ccc3c2)cc1	136.7
COc1ccc(CNC(=O)c2nc(Cn3c(C(F)F)nc4ccccc43)no2)cc1	-30.6
CN1CCCn2nc(C(=O)NCc3ccc4nonc4c3)cc2C1	1.9
CN1C[C@H]2[C@@H](c3cccc(-n4cccn4)c3)N[C@](CO)(c3ccccc3)[C@H]2C1	-5.6
CN(C)c1nc(-c2ccccc2)nc2c1CCN(c1cnccn1)CC2	-11.7
Cc1nc2ccc(NC(=O)CN3CCC(O)(c4ccccn4)CC3)cc2[nH]1	3.0
Cc1cccn2c(CC(=O)N3CCC(O)(CN(C)C)C3)cnc12 (stereo not given)	4.6
CC(=O)CSc1nsc(SCC(C)=O)n1	-25.2
CN(C)CCO[C@@H]1C[C@@H]2CN(S(=O)(=O)c3cn(C)cn3)CCN2C1	30.1
COc1cc(OC)c(NC(=O)C2=C(C)C(=O)OC23CCN(Cc2ccccc2)CC3)cc1Cl	-26.1
Cc1cnc(N2CCC3(CC2)CN(c2ccsc2)C(=O)CO3)nc1	2.7
CNC(=O)[C@H]1CC2CN(C(=O)Cc3ccsc3)CC2N1C(C)=O (stereo not given in full)	11.8
O=C1CCc2cc(NS(=O)(=O)Cc3ccccc3Cl)ccc2N1	136.7
Cc1ccc2c(c1)c(=O)cc(C(F)(F)F)n2CC1(O)CCN(Cc2cccs2)CC1	-33.4
COCC(=O)N1CCC2(CCC2NC(=O)c2cnccn2)CC1 (stereo not given)	1.2
COc1ccc(-c2nnc3c4ccccc4c(C)nn23)cc1	1.7
CC(=O)Nc1ccc(NC(=O)CN2C(=O)CCc3cc(S(=O)(=O)N4CCCCC4C)ccc32)cc1 (stereo not given)	-6.2
CC(C)N1C2CCN(C(=O)c3ccc[nH]3)CC2C[C@H]1CN1CCCC1 (stereo not given in full)	8.9
CCCCCCCC1CC(CSc2ncn[nH]2)OC1=O (stereo not given)	-24.3
CCCC(=O)N1C[C@@H]2[C@H](c3ccccc31)[C@@H](CO)N2C(=O)Nc1ccc(F)cc1	-4.9

A portion of the library; count on the stated rates, not on these rows.
